Source: PubChem BioAssay (Fisher Drug Discovery Resource Center)
NPYLR7 ag: activates Aedes aegypti NPYLR7 receptor; HEK293T NPYLR7/Galpha15, GCaMP6s calcium fluorescence; activation, % at 10 µM; 270,000 tested, 0.15% active; in the data active = activation above about 40%;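 note: 0% = vehicle and 100% = reference agonist at the receptor; some compounds past the cut are filed as inactive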
NPYLR7 ag max-min: recorded beside NPYLR7 ag, whose call it bears; activation, %; measured here: Max-Min RFU normalised activation; some inactives read as strong as hits;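 span of the calcium signal over five minutes; 0% = vehicle and 100% = native peptide agonist; compound fluorescence can raise it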
Numbers without * were called inactive; & = joins results of further samples.

cpd	SMILES	NPYLR7 ag max-min	NPYLR7 ag
1	O=C(c1c(F)c(F)c(F)c(F)c1F)N1CCC2(CC1)C(=O)NCN2c1ccccc1	-24	-20
2	CC1CCC(NC(=O)c2cnn(-c3ccccc3)c2)CC1 (stereo not drawn)	1	2
3	COc1cccc(C(=O)Nc2ccccc2C2SCC(=O)N2c2ccccc2OC)c1 (stereo not drawn)	17	20
4	CCc1nc2c(OCC3CCCCC3)cccn2c1N(C)C(=O)c1ccc(C)cc1	4	-20
5	Cn1c(C(=O)N2CCCC3(CNC(=O)O3)C2)cc2c(Cl)cccc21 (stereo not drawn)	-6	-4
6	O=C(NCc1ccco1)c1ccc(CSc2nnc(-c3ccncc3)n2-c2ccccc2F)cc1	11	13
7	O=C(N1CCc2ccc(S(=O)(=O)N3CCC(N4CCCCC4)CC3)cc2C1)C(F)(F)F	-14	-7
8	N#Cc1c(N)n(CCN)c2nc3ccccc3nc12	1&1	0&2
9	CCn1c(SCC(=O)Nc2nc3ccccc3s2)nc2c(c1=O)SC(C)C2 (stereo not drawn)	-3	-1
10	COc1ccc(-c2ccc(OCCNS(C)(=O)=O)nn2)cc1	-18	-11
11	COc1ccccc1CC(=O)N1CCOC(COc2ccccc2OC)C1 (stereo not drawn)	-6	-6
12	COc1ccc(C(CCN(C)C(=O)CC2NC(=O)NC2=O)Oc2cccc3ccccc23)cc1 (stereo not drawn)	-4	-1
13	COC(=O)c1c(NC(=O)Cn2c(=O)c(C#N)cn(C)c2=O)sc(C)c1C	7&9	15&9
14	CCN1CCN(c2ccc(C(=O)C=Cc3ccc(O)c(OC)c3)cc2F)CC1	79*	93*
15	CCOC(=O)c1[nH]c2ccccc2c1NC(=O)c1ccc(OCC)c(OCC)c1	17	16
16	CCCCS(=O)(=O)N1CCN(c2ccc(NC(=O)c3ccco3)cn2)CC1	-17	-3
17	COc1ccc(/C=C2\N=C(c3ccccc3)OC2=O)c(OC)c1OC	3	6
18	CCCCN(C)c1c(C)nc2ccc(C(=O)NCCCn3ccnc3)cn12	-9	-5
19	Cn1cc(NC(=O)NC(C)(C)C)c2ccccc21	-5	-1
20	CCCCN(CC(=O)Nc1cc(-c2ccccc2)nn1-c1ccc(C)cc1)C(=O)C(C)Cl (stereo not drawn)	19	6
21	O=C(NCCC(=O)N1CCCc2cc(Cl)ccc21)c1ccoc1	-2	0
22	CCOC(=O)C1=C(C)NC(C)=C(C(=O)OCC)C1c1cccc(NC(=O)C(F)(F)F)c1	-12	-6
23	Cc1ccc(S(=O)(=O)N2CCCN(Cn3ncc4c(C)n(C)c(C)c4c3=O)CC2)cc1	1	4
24	CCc1ccc(NC(=O)CSc2nc(=O)n(CCCN(CC)CC)c3c2CCC3)cc1	14	5
25	CNCc1n[nH]c2c1CCC2	36	-1
26	COCCN1C(=O)CC2(C1=O)C(=O)N(CCCOc1ccccc1OC)c1ccc(C)cc12 (stereo not drawn)	-16	-13
27	COc1ccc(Cn2c(-c3ccc(C)cc3)nc3oc4ccccc4c(=O)c3c2=O)cc1	2	5
28	O=C1CCC(C(=O)N2CCSCC2)CN1CCc1cccc(F)c1 (stereo not drawn)	0	5
29	COc1ccc(OC)c(-c2nc3ccc(C)cn3c2NCc2ccccc2)c1	10	13
30	CSc1cccc(NC(=O)Cn2ncn3nc4c(c3c2=O)CCCC4)c1	-5	-1
31	Cc1cc(Br)ccc1-c1ccc(CNc2nnnn2C)o1	-28	-22
32	COc1ccccc1-n1c(=O)[nH]c2c(C(N)=O)nc(CC(C)C)nc21	-2	-1
33	Cc1ccc2nc(C3CCCN3CCCn3ccnc3C)[nH]c2c1 (stereo not drawn)	-4	5
34	CN(CCc1cccs1)C(=O)Nc1ccc2c(c1)C(=O)N(C)CC2	2	4
35	O=C(Oc1cccc2cccnc12)c1ccc(Cl)cc1	-6	-4
36	CCCc1ccc(S(=O)(=O)N2CC(=O)N3CCc4c(F)cccc4C3C2)cc1 (stereo not drawn)	11	-2
37	Cc1cccnc1NC(=O)NC1(c2ccc(F)cc2)CCC1	3	6
38	CCCS(=O)(=O)NC(=O)C(C)(C)c1ccccc1	4	10
39	OC(CCc1ccccc1)c1ccc2c(c1)CN(Cc1ccco1)CCO2 (stereo not drawn)	-1	3
40	CC(C)(C)c1cnc(Cn2c(C(F)(F)F)csc2=O)o1	8	10

Reformatted with one line to a screen: entries from further up.
20) CCCCN(CC(=O)Nc1cc(-c2ccccc2)nn1-c1ccc(C)cc1)C(=O)C(C)Cl (stereo not drawn)
21) O=C(NCCC(=O)N1CCCc2cc(Cl)ccc21)c1ccoc1
22) CCOC(=O)C1=C(C)NC(C)=C(C(=O)OCC)C1c1cccc(NC(=O)C(F)(F)F)c1
23) Cc1ccc(S(=O)(=O)N2CCCN(Cn3ncc4c(C)n(C)c(C)c4c3=O)CC2)cc1
24) CCc1ccc(NC(=O)CSc2nc(=O)n(CCCN(CC)CC)c3c2CCC3)cc1
25) CNCc1n[nH]c2c1CCC2
26) COCCN1C(=O)CC2(C1=O)C(=O)N(CCCOc1ccccc1OC)c1ccc(C)cc12 (stereo not drawn)
27) COc1ccc(Cn2c(-c3ccc(C)cc3)nc3oc4ccccc4c(=O)c3c2=O)cc1
28) O=C1CCC(C(=O)N2CCSCC2)CN1CCc1cccc(F)c1 (stereo not drawn)
29) COc1ccc(OC)c(-c2nc3ccc(C)cn3c2NCc2ccccc2)c1
Screen / compound no.	20	21	22	23	24	25	26	27	28	29
NPYLR7 ag max-min	19	-2	-12	1	14	36	-16	2	0	10
NPYLR7 ag	6	0	-6	4	5	-1	-13	5	5	13

30) CSc1cccc(NC(=O)Cn2ncn3nc4c(c3c2=O)CCCC4)c1
31) Cc1cc(Br)ccc1-c1ccc(CNc2nnnn2C)o1
32) COc1ccccc1-n1c(=O)[nH]c2c(C(N)=O)nc(CC(C)C)nc21
33) Cc1ccc2nc(C3CCCN3CCCn3ccnc3C)[nH]c2c1 (stereo not drawn)
34) CN(CCc1cccs1)C(=O)Nc1ccc2c(c1)C(=O)N(C)CC2
35) O=C(Oc1cccc2cccnc12)c1ccc(Cl)cc1
36) CCCc1ccc(S(=O)(=O)N2CC(=O)N3CCc4c(F)cccc4C3C2)cc1 (stereo not drawn)
37) Cc1cccnc1NC(=O)NC1(c2ccc(F)cc2)CCC1
Screen / compound no.	30	31	32	33	34	35	36	37
NPYLR7 ag max-min	-5	-28	-2	-4	2	-6	11	3
NPYLR7 ag	-1	-22	-1	5	4	-4	-2	6

Remaining list, next part
cpd	SMILES	NPYLR7 ag max-min	NPYLR7 ag
41	COCCn1c(SCC(=O)N2CC(C)OC(C)C2)nc2c([nH]c3ccccc32)c1=O (stereo not drawn)	-1	0
42	COc1ccc2nc(SCc3csc(Cc4ccc(C)cc4)n3)[nH]c2c1	26	19
43	O=S(=O)(c1ccc(Br)cc1)N1CCC(N2CCCCC2)CC1	-2	0
44	Cc1cc(C)nc(-n2nc(C)cc2NC(=O)CSc2nnc(C)s2)n1	25	33
45	CS(=O)(=O)NCCc1ccc(-c2csc(-c3ccccc3N)n2)cc1	3	11
46	COC(=O)CCCCC(=O)N1CCN(CC(OCc2ccc(C#N)cc2)c2cccc(OC)c2)CC1 (stereo not drawn)	9	-2
47	C=CCN(CC(=O)N1N=C(c2ccc(F)cc2)CC1c1cccn1C)C1CCCC1 (stereo not drawn)	18	9
48	CC(=O)OC(OC(C)=O)c1coc2c(F)cccc2c1=O	6	5
49	COc1cc2c(cc1OC)C(c1ccccc1Cl)N(C(=O)C1CC(=O)N(Cc3ccccc3)C1)CC2 (stereo not drawn)	-2	0
50	O=C(O[C@H]1[C@H](Oc2ccccc2COC(=O)C2(O)C=CCCC2=O)O[C@H](CO)[C@@H](O)[C@@H]1O)c1ccccc1 (stereo partly drawn)	-6	-3
51	COc1ccc(NC(=O)c2cscn2)cc1OC1CCCC1	2	5
52	COc1cccc(CNC(=O)C(C)NCC2CN(C)CCO2)c1 (stereo not drawn)	2	2
53	O=S(=O)(c1ccc(C2=CSC3=NCCN23)cc1)N1CCOCC1	-3	2
54	CCN1C(=O)C2C3OC(C4C(c5ccc(Cl)cc5)=NOC34)C2C1=O (stereo not drawn)	-4	-6
55	CCc1cn[nH]c1C1CCN(C(=O)c2cccc(O)c2C)CC1	1	3
56	CC1=NC2=C(C(=O)CC(c3ccc(Cl)cc3)C2)C(c2ccccc2OC(C)C)C1C#N (stereo not drawn)	-8	-2
57	CC(C)Nc1nnc(SCC(=O)Nc2ccc3c(c2)OCO3)s1	7	11
58	COc1ccc(NC(C)c2nc(C)no2)cc1Cl (stereo not drawn)	3&-1	4&-1
59	COC(=O)c1ccc(C=Nn2c(-c3ccncc3)n[nH]c2=S)cc1	-11	-8
60	C=CCNC(=O)c1ccccc1OCc1cn2cccc(C)c2n1	0	0
61	CC(C)(C)c1nnc2sc(SCC(=O)NCC3CCCCC3)nn2c1=O	-3	-1
62	S=c1[nH]nc(NCCc2cccs2)s1	7	1
63	COc1ccc(C(=O)N2CCCC(O)(CN(C)C)C2)c(OC)n1 (stereo not drawn)	-5	-2
64	CCOC(=O)N1CCN(C(=O)CSc2ccc(NC(=O)C3CC3)nn2)CC1	-2	0
65	COC(=O)CCC(=O)N1CCCC(CO)(Cc2ccccc2)C1 (stereo not drawn)	8	7
66	CN(C)c1c(F)cc(NC(=O)N2CCN(CC(F)F)CC2)cc1F	18	18
67	CCOC(=O)c1ccc(S(=O)(=O)NCCn2nc(-c3cccs3)ccc2=O)cc1	2	4
68	Cc1noc(-c2cccnc2)c1C(=O)N(C)CCc1ccccn1	0	-5
69	COC(=O)c1cccc(S(=O)(=O)N2CC(=O)N(C)c3ccccc32)c1	4	0
70	CC(=O)c1ccc(CN(Cc2cnn(C)c2)C2CC2)cc1	-10	-3
71	O=C(CCl)N1CCN(Cc2ccc3c(c2)OCO3)CC1	-10	-4
72	Cc1c(Cl)c(C(F)(F)F)nn1CC(=O)N(Cc1ccccc1)c1ccccc1	6	9
73	O=C(O)[C@H]1C[C@H](C(=O)NCc2ccccn2)CN(C/C=C/c2ccccc2)C1	4	8
74	CCC1CN(C(=O)c2ccc3c(c2)CCO3)CCC(=O)N1Cc1ccccc1 (stereo not drawn)	5	9
75	NC(=O)COc1ccc(C=C2N=C(c3cccc(Br)c3)OC2=O)cc1	18	9
76	CCn1c(SCc2cscn2)n[nH]c1=O	-5&-4	-2&-3
77	Cc1sc2nc(SCC(=O)N3CCC(C)CC3)n(-c3ccccc3)c(=O)c2c1C	-10	-6
78	Cc1ccccc1CSc1nc(N)c(NC(=O)c2ccco2)c(=O)[nH]1	-6	-5
79	O=C(NCc1cccnc1N1CCCC(O)C1)c1cnc2ccccc2c1 (stereo not drawn)	-1	2
80	CC1CCCCN1C1CN(C(=O)CCc2n[nH]c3c2CCCC3)C1 (stereo not drawn)	3	6
81	O=C1c2ccccc2C(=O)N1CCN1C(=O)c2ccccc2C1=O	0	19
82	Cc1ccc(C)c(NC(=O)CSc2ccc(-c3ccncc3)nn2)c1	-5	5
83	Cc1ccc2nc(N/N=C\c3ccc4c(c3)OCO4)nc(-c3ccccc3)c2c1	-6	-1
84	CC(C)c1ccsc1C(=O)NCC(C)(O)c1cnn(C)c1 (stereo not drawn)	5	5
85	CCN(CC)C(=O)Oc1ccc2c(ccn2Cc2c(Cl)cccc2Cl)c1-c1ccc(F)c(F)c1	2	19
86	Cc1cc(C)n(C(=O)c2cc(F)c(F)cc2Cl)n1	-16	-11
87	CN(CCNC(=O)C(F)(F)F)C(=O)C1CC(=O)N(Cc2ccc(Cl)cc2)C1 (stereo not drawn)	4	4
88	OC1CCN(c2ccnc(NCc3nccn3Cc3ccccc3)n2)CC1	-1	0
89	Cc1cc(S(=O)(=O)N2CCCC(N3CCOCC3)C2)c(C)cc1Cl (stereo not drawn)	-3	-2
90	COc1ccc(CN2CCNC(=O)C2CC(=O)NCc2ccc(C)o2)cc1C (stereo not drawn)	0	3
91	Fc1ccc(CC2CCN(Cc3nc(CC4CC4)no3)CC2)cc1	-2	1
92	O=C(c1cnn(CC(F)(F)F)c1-c1ccccc1)N1CCOCC1	7	1
93	O=C1NC(=S)NC(=O)C1=Cc1nc(-c2cccc([N+](=O)[O-])c2)n2ccccc12	6	1
94	O=c1c2ccc(Cl)cc2[nH]c(=S)n1CC1CCCO1 (stereo not drawn)	1	0
95	COC(c1ccccc1)c1nnc(CCC(=O)NCc2cc(F)ccc2C)o1 (stereo not drawn)	-1	0
96	COc1ccc(OC)c(NC(=O)c2cnc3ccccn3c2=O)c1	39	3

Continued:
cpd	SMILES	NPYLR7 ag max-min	NPYLR7 ag
97	Cn1c(=O)c2ccccc2n2c(COC(=O)C34CCC(=O)N3c3ccccc3C(=O)N4C3CC3)nnc12 (stereo not drawn)	1	0
98	C=C1[C@H](O)[C@H]2[C@@H](OC(=O)c3ccccc3)[C@](C)(O)C[C@]2(O)[C@@H](OC(C)=O)[C@H](C)/C=C/C(C)(C)[C@H](OC(C)=O)[C@H](OC(C)=O)[C@H]1OC(C)=O	-18	-8
99	O=C(CCl)NCCc1ccc(OC(F)F)cc1	-8	-5
100	CCOC(=O)c1nc2ccccc2nc1N1CCCN(C(=O)COCc2ccccc2)CC1	-3	3
101	Cc1ccc(C(=O)N(Cc2cccnc2)Cc2nccn2Cc2ccccc2F)cc1	15	6
102	Cc1cc(C(=O)NNCc2ccccc2)no1	-7	-3
103	COc1cc(/C=C2/SC(=Nc3cc(C)cc(C)c3)NC2=O)cc(Br)c1OC	-9	-7
104	O=c1ccc(-c2ccccc2)nn1Cc1ccccc1	2	7
105	COCCN(CC(=O)N(CCc1c[nH]c2ccccc12)Cc1ccc(F)cc1)C(=O)C1C[C@H]1c1ccccc1 (stereo partly drawn)	22	19
106	CCOC(=O)C1=C(C)NC2=C(C(=O)CC(c3ccc(Cl)cc3)C2)C1c1ccc(Cl)cc1 (stereo not drawn)	-7	-3
107	CC1=NN(c2ccccc2)C(=O)/C1=C\c1ccc(-c2ccccc2C(=O)O)o1	-9	-4
108	CC(C)c1nnc2n1CCN(C1CCCc3ccccc31)C2 (stereo not drawn)	-3	0

An excerpt (hit frequency here may not be typical).
